Vaccinia mCherry: vaccinia inhibition (mCherry reporter); Vaccinia virus mCherry reporter infection, fluorescence; about a quarter of the inactives have no number; Potency, µM (series often up to 36.5 µM), inactives show at the highest dose activity change, negative = inhibition, actives largely listed as inhibitors; 0.63% of 310,000 active; active = well fitted inhibition curve with a large enough effect; inconclusive = small, poorly fitted or top-dose-only effect; inactive = no such curve, though single readings can be large or run the other way; tested in A549 cells; further: nearly all actives have a fitted effect of over 35% in size; inactives centre near -10
Vaccinia Venus: vaccinia inhibition (Venus reporter). Vaccinia virus Venus reporter expression, fluorescence. Potency, µM (top dose mostly 36.5 µM), for inactives: top-dose activity change, negative = inhibition, usual class: inhibitors. 0.46% of 330,000 active; active means well fitted inhibition curve with a large enough effect; inconclusive means small, poorly fitted or top-dose-only effect; inactive means no such curve, though single readings can be large or run the other way; tested in A549 cells; further: nearly all actives have a fitted effect of over 30% in size; inactives centre near -10
* hit, by the source's call; [ ] = dose if it differs, or a comment. On the % scale 0 is the no-effect control and ±100 the full control effect; potency means the concentration at half of the fitted maximal effect. Rows are unselected; any-hit rate near 0.82%.

COc1ccc(/C=C/C(=O)C23CC4CC(CC(C4)C2)C3)cc1CN1CCOCC1 was read as Vaccinia mCherry -24.4% and Vaccinia Venus -25.7%.
Cc1cccc(OC(C)C(=O)NC2CCS(=O)(=O)C2)c1C (stereo unspecified) was read as Vaccinia mCherry -11.6% and Vaccinia Venus 2.1%.
`COc1ccc(Br)cc1C(=O)Nc1cccc(NC(=O)c2ccco2)c1` gave Vaccinia mCherry inactive and Vaccinia Venus -24.9%.
CC(=O)c1cccc(NC(=O)CN(c2ccc(F)cc2)S(C)(=O)=O)c1 was read as Vaccinia mCherry -6.2%[1.46 µM] and Vaccinia Venus -22.3%.
Screening O=C(Nc1ccccc1)N(Cc1ccc2c(c1)OCO2)Cc1nc2ccccc2c(=O)[nH]1 returned Vaccinia mCherry -4.7% and Vaccinia Venus 5.5%.
Screening Cc1ccc(-c2nc3s/c(=C\c4ccco4)c(=O)n3n2)cc1 returned Vaccinia mCherry inactive and Vaccinia Venus 6.1%.
O=C(CCn1nnnc1CN1CCOCC1)N1CCC(c2cccc(Cl)c2)C1 (stereo unspecified) was read as Vaccinia mCherry -22.8% and Vaccinia Venus -9.8%.
`Cc1ccc(N(CC(O)CN2CCCCC2)S(=O)(=O)c2ccc(C)cc2)cc1` (stereo unspecified) gave Vaccinia mCherry -9.3% and Vaccinia Venus -2.8%.
For O=C(NNC(=O)c1cc(-c2ccccc2)n(-c2ccccc2)n1)c1cccc([N+](=O)[O-])c1 the results were Vaccinia mCherry -10.2% and Vaccinia Venus -5.7%.
CC1=NN(C(=O)c2ccco2)C(O)(c2ccccc2)C1 (stereo unspecified) was read as Vaccinia mCherry -16.3% and Vaccinia Venus -5.4%.
O=C(CN(Cc1cccs1)C(=O)CNS(=O)(=O)c1ccccc1)NCc1ccco1 was read as Vaccinia mCherry -17.0% and Vaccinia Venus -0.9%.
Screening CCOn1c(=O)c(-c2cccc(Br)c2)[n+]([O-])c2ccccc21 returned Vaccinia mCherry -3.2% and Vaccinia Venus -21.6%.
COC(=O)c1ccccc1NC(=O)CSc1nc(=O)cc(N)n1-c1ccccc1 was read as Vaccinia mCherry 7.9% and Vaccinia Venus 13.5%.
Screening Cc1ccc(S(=O)(=O)/N=C2/NC(=O)/C(=C/c3cc([N+](=O)[O-])ccc3O)S2)cc1 returned Vaccinia mCherry inactive and Vaccinia Venus 26.1%.
`CC(=O)Oc1ccc(N(C(C)=O)S(=O)(=O)c2ccc(C)c([N+](=O)[O-])c2)cc1` gave Vaccinia mCherry -4.6% and Vaccinia Venus -11.8%.
O=C(CNC(=O)c1ccccc1F)OCCOc1cccc(Cl)c1 was read as Vaccinia mCherry inactive and Vaccinia Venus 5.3%.
Screening CCOC(=O)c1c(C)oc(C)c(C(=O)OCC)c1=O returned Vaccinia mCherry -4.6% and Vaccinia Venus -4.8%.
`O=C(NCC1CCCO1)c1cccc(S(=O)(=O)N(Cc2ccccc2)c2ccccc2)c1` (stereo unspecified) gave Vaccinia mCherry -3.4% and Vaccinia Venus -15.0%.
Screening Cn1c(NCCN2CCCCC2)cc(=O)n(C)c1=O returned Vaccinia Venus -30.8%.
`COc1ccc(C(NC(=O)C(C)C)c2ccc3cccnc3c2O)cc1` (stereo unspecified) gave Vaccinia mCherry 4.47µM* and Vaccinia Venus inconclusive.
`Cc1cc(=O)oc2cc(OCC(=O)Nc3c(Cl)cccc3C(F)(F)F)ccc12` gave Vaccinia mCherry inactive and Vaccinia Venus 12.6%.
`CCCCCn1c(=O)[nH]c2cc(C(=O)N3CCN(c4ccccc4)CC3)ccc2c1=O` gave Vaccinia mCherry -21.5% and Vaccinia Venus -20.2%.
CC(=O)N1CCc2cc(S(=O)(=O)C(C)CC(=O)Nc3ccc(Br)c(C)c3)ccc21 (stereo unspecified) was read as Vaccinia mCherry -17.7% and Vaccinia Venus -7.5%.
Screening N#Cc1sc2nc(N3CCCCC3)c3c(c2c1N)CCCC3 returned Vaccinia mCherry -15.3%[1.46 µM] and Vaccinia Venus inconclusive.
Screening O=C(OCC(=O)c1ccccc1)C1=NN(c2ccccc2)C(=O)CC1 returned Vaccinia mCherry inactive and Vaccinia Venus -3.7%.
`CCCCCNC(=O)C1CC(=O)OC12CCCCC2` (stereo unspecified) gave Vaccinia mCherry -5.1% and Vaccinia Venus -6.9%.
Screening CCOC(=O)C(C)C(C)=O (stereo unspecified) returned Vaccinia mCherry 0.316µM* and Vaccinia Venus inconclusive.
`CCN(C(=O)CSc1nnc(-c2ccc(OC)cc2)n1C(C)C)C1CCS(=O)(=O)C1` (stereo unspecified) gave Vaccinia mCherry inactive and Vaccinia Venus -10.7%.
For CCn1ccc(C(=O)Nc2ccc(N(C)C(C)=O)cc2)n1 the results were Vaccinia Venus -4.0%.
COc1ccc(N(CC(=O)NCc2ccccc2)S(C)(=O)=O)cc1 was read as Vaccinia mCherry -25.7% and Vaccinia Venus 0.4%.
`CNc1nc(N)c(C(=O)C(C)(C)C)s1` gave Vaccinia mCherry -29.0% and Vaccinia Venus -15.8%.
`COc1ccc2c(c1)CCC1C2CCC2(C)C(O)C(=O)CC12` (stereo unspecified) gave Vaccinia mCherry -0.9% and Vaccinia Venus -15.5%.
Screening Cc1ccc(-c2noc(CN3C(C)CCCC3C)n2)cc1 (stereo unspecified) returned Vaccinia mCherry inactive and Vaccinia Venus -7.7%.
For COc1ccc([N+](=O)[O-])cc1NC(=O)COC(=O)c1ccccc1C(=O)c1ccccc1 the results were Vaccinia mCherry inactive and Vaccinia Venus -17.8%.
For CCC(=O)N1CCCC(C)(C(=O)Nc2ccc(OC)c(F)c2)C1 (stereo unspecified) the results were Vaccinia mCherry 32.9%[activator] and Vaccinia Venus 10.4%.
`CCOc1ccc(CSC(=N)N)cc1` gave Vaccinia mCherry -3.3% and Vaccinia Venus -11.5%.
`CCC(=O)Nc1nnc(-c2cccs2)s1` gave Vaccinia mCherry 10.2% and Vaccinia Venus 10.9%.
CCc1cccc(Nc2c([N+](=O)[O-])cc(C(=O)N3CC(=O)Nc4ccccc43)cc2[N+](=O)[O-])c1 was read as Vaccinia mCherry -3.2% and Vaccinia Venus -17.9%.
`Cn1c(=O)c2cc(NC(=S)NC3CC3)ccc2n1C/C=C/c1ccccc1` gave Vaccinia mCherry 6.0% and Vaccinia Venus -0.7%.
`CCCN=Cc1c(CCC)[nH]n(-c2nc3ccccc3s2)c1=O` gave Vaccinia mCherry -21.8% and Vaccinia Venus -9.3%.

An excerpt from above in order of molar mass, smallest number first.
`CNc1nc(N)c(C(=O)C(C)(C)C)s1` gave Vaccinia mCherry -29.0% and Vaccinia Venus -15.8%.
`CCC(=O)Nc1nnc(-c2cccs2)s1` gave Vaccinia mCherry 10.2% and Vaccinia Venus 10.9%.
Screening Cc1ccc(-c2noc(CN3C(C)CCCC3C)n2)cc1 (stereo unspecified) returned Vaccinia mCherry inactive and Vaccinia Venus -7.7%.
`CCCN=Cc1c(CCC)[nH]n(-c2nc3ccccc3s2)c1=O` gave Vaccinia mCherry -21.8% and Vaccinia Venus -9.3%.
For COc1ccc([N+](=O)[O-])cc1NC(=O)COC(=O)c1ccccc1C(=O)c1ccccc1 the results were Vaccinia mCherry inactive and Vaccinia Venus -17.8%.

(list continues)
`Cc1nnc(SCc2nnc(-c3ccccc3)o2)n(N)c1=O` gave Vaccinia mCherry -10.5% and Vaccinia Venus -4.2%.
Screening Fc1ccc(Br)cc1C1C=C(c2cccnc2)Nc2ncnn21 (stereo unspecified) returned Vaccinia mCherry inactive and Vaccinia Venus -24.5%.
Screening COc1cc(Br)c(C2CC(=O)Nc3cc4c(cc32)OCCO4)cc1OC (stereo unspecified) returned Vaccinia mCherry -20.7% and Vaccinia Venus inconclusive.
`COC(=O)c1ccccc1NS(=O)(=O)c1cc2c3c(c1)CC(=O)N3CCC2` gave Vaccinia mCherry -20.8% and Vaccinia Venus -5.6%.
Screening COc1cc(Cl)c(NC(=O)CC(C)S(=O)(=O)c2cc3c(cc2C)NC(=O)CO3)c(OC)c1 (stereo unspecified) returned Vaccinia mCherry -7.0% and Vaccinia Venus 3.9%.
`COc1ccccc1NC(=O)CCC(=O)Nc1cc(OC)c(NC(=O)c2cccs2)cc1OC` gave Vaccinia mCherry -20.7% and Vaccinia Venus -11.1%.
Screening CCn1c(N2CCN(C(=S)NCC(C)C)CC2)nc2ccccc21 returned Vaccinia mCherry inactive and Vaccinia Venus -16.4%.
For CN1C(=O)c2oc3ccccc3c(=O)c2C1c1ccccn1 (stereo unspecified) the results were Vaccinia Venus -10.3%.
`Cc1ccc(CSc2nnc(SCC(=O)N/N=C/c3c(C)nn(-c4ccccc4)c3C)s2)cc1` gave Vaccinia mCherry -14.2% and Vaccinia Venus -1.5%.
Screening COC(=O)Cc1ccc(NC(=S)NCc2ccc(S(N)(=O)=O)cc2)cc1 returned Vaccinia mCherry 0.8% and Vaccinia Venus -6.8%.
Screening COc1cc(OC)c(C2C=C(C(=O)O)Nc3ncnn32)cc1OC (stereo unspecified) returned Vaccinia mCherry -15.5% and Vaccinia Venus -1.0%.
For COCCN1CCN(C(=O)c2cc(COc3ccc(F)cc3Cl)on2)CC1 the results were Vaccinia mCherry -13.9% and Vaccinia Venus 0.3%.
`Cc1oc2c(C)c3oc(=O)c4c(c3cc2c1C)CCCC4` gave Vaccinia mCherry -12.3% and Vaccinia Venus -6.3%.
For Cc1cc(C)nc(S/C=C/C(=O)c2ccccc2)n1 the results were Vaccinia mCherry -10.0% and Vaccinia Venus -8.3%.
O=C(COC(=O)c1ccc(O)cc1)c1ccc(S(=O)(=O)N2CCCCC2)cc1 was read as Vaccinia mCherry -19.7% and Vaccinia Venus -13.4%.
For Clc1ccc(CN2C3=NCCCN3c3ccccc32)cc1 the results were Vaccinia Venus -15.7%.
Screening Cc1ccc(S(=O)(=O)N2CCN(C(=O)C(F)(F)F)C2c2ccc(N(C)C)cc2)cc1 (stereo unspecified) returned Vaccinia mCherry 11.1% and Vaccinia Venus 7.4%.
CCOC(=O)c1ccccc1NC(=O)N1CCCn2nc(C)cc21 was read as Vaccinia mCherry -16.2% and Vaccinia Venus -15.4%.
Screening CC(C)CCN1C(=O)c2ccccc2C1c1nnnn1-c1ccc2c(c1)OCCO2 (stereo unspecified) returned Vaccinia mCherry -13.7% and Vaccinia Venus -5.2%.
Screening COc1ccc(C(=O)N2CCN(C(=O)CC(C)C)CC2)cc1OC returned Vaccinia Venus 8.1%.
Screening Cc1cc(C)c(NC(=S)N(CCN(C)C)Cc2cccs2)c(C)c1 returned Vaccinia mCherry -22.2% and Vaccinia Venus -4.6%.
Screening COc1ccc(O)c(C(=O)CC(=O)c2ccncc2)c1 returned Vaccinia mCherry inactive and Vaccinia Venus -9.7%.
For COc1ccc(CC(N)c2csc(NC(=O)Nc3ccccc3Cc3ccccc3)n2)cc1 (stereo unspecified) the results were Vaccinia mCherry -7.7% and Vaccinia Venus inconclusive.
For CN(C)c1ccc(/C=C/c2ccnc3ccc(-c4ccccc4)cc23)cc1 the results were Vaccinia mCherry 37.5%[activator] and Vaccinia Venus 34.8%[activator].
`Fc1ccc(CN2CCCN(C(=S)Nc3ccc(F)cc3)CC2)cc1` gave Vaccinia mCherry -1.8%[7.34 µM] and Vaccinia Venus -3.0%[7.34 µM].
Cc1ccc(-c2nc(=Nc3c(C)cc(C)cc3C)sn2-c2ccccc2)cc1 was read as Vaccinia mCherry inconclusive and Vaccinia Venus inconclusive.
For O=C(C1=C[C@@H](c2csc3ccccc23)C[C@@H](OCc2ccc(CO)cc2)O1)N1CCN(Cc2ccccc2)CC1 the results were Vaccinia mCherry inconclusive and Vaccinia Venus inconclusive.
`COc1ccc(C(=O)Nc2cc3c(cc2C(=O)c2ccccc2Cl)OCCO3)cc1` gave Vaccinia mCherry -5.4% and Vaccinia Venus 2.1%.
`N#C/C(=C\c1cccc(Cl)c1)C(=O)c1ccccc1` gave Vaccinia mCherry inactive and Vaccinia Venus -11.7%.
Cc1ccc(Cn2ccc(NC(=O)c3cc(C)on3)n2)cc1 was read as Vaccinia mCherry -9.3% and Vaccinia Venus -12.3%.
`COc1ccccc1CCn1cnc(-c2ccc(OC)c(OC)c2)c1C(C)C` gave Vaccinia mCherry 1.9% and Vaccinia Venus -14.3%.
CCCNC(=O)C(Cc1cccc(C#N)c1)NC(=O)c1cccc([N+](=O)[O-])c1 (stereo unspecified) was read as Vaccinia mCherry inactive and Vaccinia Venus -13.4%.
For COc1ccccc1C(=O)Nc1c(C(=O)c2ccccc2)oc2ccccc12 the results were Vaccinia mCherry -7.3% and Vaccinia Venus 4.2%.
For CCCCCN(C(=O)CCC(=O)OC(C)C(=O)Nc1cccc(C#N)c1)c1c(N)n(CCCC)c(=O)[nH]c1=O (stereo unspecified) the results were Vaccinia mCherry -2.0% and Vaccinia Venus 2.0%.
O=C(CCCN1C(=O)C2CCCCN2C1=O)N1CCN(c2ccc([N+](=O)[O-])cc2)CC1 (stereo unspecified) was read as Vaccinia Venus -24.8%.
`COc1ccc(NC(=O)CN2C(=O)CC(c3ccc(C)c(C)c3)=Nc3ccccc32)cc1OC` gave Vaccinia mCherry -14.5% and Vaccinia Venus -7.5%.
`CCOc1ccccc1NC(=O)C(=O)NCCc1sc(-c2cccc(F)c2)nc1C` gave Vaccinia mCherry -22.6% and Vaccinia Venus -2.8%.
Screening O=C(CSc1nc2c(c(=O)[nH]1)CCCC2)Nc1cccc(O)c1 returned Vaccinia mCherry -8.0% and Vaccinia Venus -4.9%.
For CCn1c(Cn2nnc(-c3ccccc3)n2)nnc1SCC(=O)Nc1ccccc1 the results were Vaccinia mCherry inactive and Vaccinia Venus -11.0%.
Cc1ccc(OCC(=O)NCc2n[nH]c(=O)c3ccccc23)cc1 was read as Vaccinia mCherry -7.2% and Vaccinia Venus -1.7%.

Assay outcomes: PubChem, National Center for Advancing Translational Sciences (NCATS)
